Screens deposited in PubChem BioAssay by several laboratories.
RecA intein inh: inhibitors of M. tuberculosis RecA intein splicing | P9WHJ3 | cell-free RecA intein splicing, fluorescence | inhibition, %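 (about 9 µM by stock and volumes)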 | 290,000 tested, 0.75% active; in the data active = inhibition above about 30%; inconclusive = no clear call, values can overlap the other calls;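 also: 0% = vehicle wells and 100% = reference inhibitor control wells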
Target sequence (P9WHJ3 whole entry, looked up): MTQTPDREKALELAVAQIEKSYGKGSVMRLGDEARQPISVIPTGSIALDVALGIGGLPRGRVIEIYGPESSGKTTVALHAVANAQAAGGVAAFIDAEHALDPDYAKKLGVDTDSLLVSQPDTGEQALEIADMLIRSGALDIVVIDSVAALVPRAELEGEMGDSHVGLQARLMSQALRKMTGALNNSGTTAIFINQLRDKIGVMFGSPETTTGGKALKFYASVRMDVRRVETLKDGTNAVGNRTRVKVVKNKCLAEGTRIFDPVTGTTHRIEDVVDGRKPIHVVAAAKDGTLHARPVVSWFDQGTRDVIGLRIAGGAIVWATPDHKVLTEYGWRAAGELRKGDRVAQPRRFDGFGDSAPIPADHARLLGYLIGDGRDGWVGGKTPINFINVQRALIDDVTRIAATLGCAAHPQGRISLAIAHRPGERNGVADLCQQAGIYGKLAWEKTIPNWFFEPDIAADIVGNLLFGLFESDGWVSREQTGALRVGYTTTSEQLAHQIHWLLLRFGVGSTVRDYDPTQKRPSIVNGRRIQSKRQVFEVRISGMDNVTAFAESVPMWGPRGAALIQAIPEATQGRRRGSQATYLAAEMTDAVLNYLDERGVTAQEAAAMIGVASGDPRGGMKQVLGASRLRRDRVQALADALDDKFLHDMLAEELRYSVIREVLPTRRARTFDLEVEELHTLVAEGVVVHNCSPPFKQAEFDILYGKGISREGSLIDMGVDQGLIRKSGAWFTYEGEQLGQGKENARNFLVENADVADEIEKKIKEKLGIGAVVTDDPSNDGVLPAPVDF
Mtb growth: M. tuberculosis H37Rv growth inhibitors, H37Rv strain (AID 1626); M. tuberculosis H37Rv growth inhibition; higher % means a stronger effect; inhibition, % at 10 µM, or IC50 in µM where a hit was titrated; 220,000 tested, 0.95% active;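 active = confirmed in a dose series; inconclusive = inhibition above 80% but not taken into the dose series; inactive = below 80% or under 30% at every dose of the series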;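 also: bacteria incubated seven days before Alamar blue readout; 0% = bacteria only wells and 100% = bacteria with antibiotic wells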
YopH inh: YopH (Yersinia) phosphatase inhibition; fluorescence Ex485/Em525; inhibition, %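 (about 10 µM by stock and volumes)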; 140,000 tested, 0.16% active;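 active = inhibition of 50% or more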;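 also: controls were vehicle for no effect and minimum signal wells for full effect; inactives centre near -20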
Arbovirus anti: arbovirus infection inhibition; arbovirus infection cell-based antiviral screen; inhibition, % at 10 µM; 200,000 tested, 0.37% active; AID 1251;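 active = inhibition from about 30%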;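 also: bluetongue infection of BSR cells; cell survival read as ATP light after 72 h; 0% = infected wells without compound and 100% = uninfected wells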
Mtb bLac sens: beta-lactam sensitization of Mtb H37Rv; M. tuberculosis H37Rv growth with meropenem, percent inhibition; hits of this screen are not shown here; inhibition, % at 25 µM; 330,000 tested, 0.27% active;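 active = about 74% or more and at least 40 points above the plate without the antibiotic, then above 30% in a dose series; inconclusive = first-round hits that could not be retested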;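 also: growth measured after seven days incubation then overnight dye step; 0% = bacteria only wells and 100% = bacteria with antibiotic; twin plates without the antibiotic show which effects depend on it; some results filed as inactive read as strong as hits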
Arbovirus anti repeat: recorded beside Arbovirus anti, whose call it bears; inhibition, %; measured here: 10K subset replicate screen; many hits read low in the repeat;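 first of two repeat runs on a subset; 0% = infected and 100% = uninfected wells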
Numbers without * were called inactive; ? = inconclusive; · = no result given.

SMILES	RecA intein inh	Mtb growth	YopH inh	Arbovirus anti	Mtb bLac sens	others
Oc1ccc(/C=N/Nc2ncc(Cl)cc2Cl)cc1	-4.9	·	·	·	5
COc1cc(-c2nnc(SCC3(c4ccccc4)OCCO3)o2)cc(OC)c1OC	-0.4	4%	-36	-5	2
N=C1C(c2nc3ccccc3[nH]2)=C(O)CN1c1ccc(CC(=O)O)cc1	·	6%	-28	9	14
O=C(c1ccc(F)cc1)N1CCN(C(=O)c2ccc([N+](=O)[O-])cc2)CC1	0.6	-6%	·	3	-7
CCn1c(SCC(=O)N2c3ccccc3CC2C)nnc1-c1ccco1 (stereo not given)	-2.1	-4%	-15	·	13
Nc1ccc(CSc2ccc(Cl)cc2)cc1	4.1	?	·	-21	2
CCOC(=O)C1CCCN(C(=O)c2ccc3nc(-c4ccccc4)c(-c4ccccc4)nc3c2)C1 (stereo not given)	12	·	·	·	8
CCOc1ccccc1-n1c(O)c(C=NCCCN(CC)CC)c(=O)[nH]c1=O	0.7	-2%	-42	-1	-3
COc1ccc(OC)c(C(O)c2nc3ccccc3n2C)c1 (stereo not given)	2.2	·	·	·	3
FC(F)(F)c1cccc(-c2nc(-c3ccncc3)no2)c1	-0.4	·	·	·	4
CC[n+]1c(/C=C/Nc2ccccc2)sc2ccccc21	-2.9	9%	1	7	0
O=S1(=O)CCC(n2ncc3c2/C(=C/c2ccccc2)CC3)C1 (stereo not given)	1.1	0%	·	-1	3
CN(C(=O)c1ccc(Cl)c([N+](=O)[O-])c1)C1(C)CCS(=O)(=O)C1 (stereo not given)	-2.1	·	·	·	-6
NNC(=O)CSc1nnnn1-c1ccccc1	-1.2	12%	·	·	2
O=C1CC(NS(=O)(=O)c2cccnc2)CN1c1ccc(F)cc1 (stereo not given)	2.5	·	·	·	-14
COc1ccc(S(=O)(=O)N2CCCC(C(=O)NCC3CCCO3)C2)cc1C (stereo not given)	-1.9	·	·	·	?
CC(C)C[C@H](NC(=O)Nc1ccc(S(N)(=O)=O)cc1)C(=O)O	·	-1%	2	4	2
CC(CCc1ccccc1)NC(=O)CCCn1ncn2c(cc3occc32)c1=O (stereo not given)	-1.2	·	·	·	3
CN(C)/C=C1\N=C(c2ccc(Cl)cc2Cl)OC1=O	-1.4	5%	2	-4	·
COC(=O)C1=C(N)Oc2cc(C)n(Cc3ccco3)c(=O)c2C1c1cccc(Cl)c1 (stereo not given)	6.3	-3%	-55	2	1

Sorted by heavy-atom count (lowest first): some entries from above.
SMILES	RecA intein inh	Mtb growth	YopH inh	Arbovirus anti	Mtb bLac sens	others
Nc1ccc(CSc2ccc(Cl)cc2)cc1	4.1	?	·	-21	2
NNC(=O)CSc1nnnn1-c1ccccc1	-1.2	12%	·	·	2
Oc1ccc(/C=N/Nc2ncc(Cl)cc2Cl)cc1	-4.9	·	·	·	5
CC[n+]1c(/C=C/Nc2ccccc2)sc2ccccc21	-2.9	9%	1	7	0
FC(F)(F)c1cccc(-c2nc(-c3ccncc3)no2)c1	-0.4	·	·	·	4
O=S1(=O)CCC(n2ncc3c2/C(=C/c2ccccc2)CC3)C1 (stereo not given)	1.1	0%	·	-1	3
O=C1CC(NS(=O)(=O)c2cccnc2)CN1c1ccc(F)cc1 (stereo not given)	2.5	·	·	·	-14
O=C(c1ccc(F)cc1)N1CCN(C(=O)c2ccc([N+](=O)[O-])cc2)CC1	0.6	-6%	·	3	-7
COc1ccc(S(=O)(=O)N2CCCC(C(=O)NCC3CCCO3)C2)cc1C (stereo not given)	-1.9	·	·	·	?
CCOc1ccccc1-n1c(O)c(C=NCCCN(CC)CC)c(=O)[nH]c1=O	0.7	-2%	-42	-1	-3
CC(CCc1ccccc1)NC(=O)CCCn1ncn2c(cc3occc32)c1=O (stereo not given)	-1.2	·	·	·	3
COC(=O)C1=C(N)Oc2cc(C)n(Cc3ccco3)c(=O)c2C1c1cccc(Cl)c1 (stereo not given)	6.3	-3%	-55	2	1
CCOC(=O)C1CCCN(C(=O)c2ccc3nc(-c4ccccc4)c(-c4ccccc4)nc3c2)C1 (stereo not given)	12	·	·	·	8

Next section:
SMILES	RecA intein inh	Mtb growth	YopH inh	Arbovirus anti	Mtb bLac sens	others
O=C(CCC(=O)OCC(=O)c1ccc(Br)cc1)Nc1ccc(Br)c2cccnc12	-0.4	-8%	-12	0	17
Cc1csc2c(SCC(=O)NNC(=O)C(Cl)Cl)ncnc12	-1.3	-11%	·	·	-1
CC(C)N(Cc1nc(-c2ccc(Cl)cc2)no1)C(=O)CCCN1C(=O)c2ccccc2C1=O	5.0	4%	·	11	·	Arbovirus anti repeat=5
Cc1ccc(CNC(=O)CCCn2c(=O)c3ccccc3n(CC(=O)NC3CCCC3)c2=O)cc1	-5.1	-4%	-14	0	-4
CSc1cccc(N2CC(C(=O)N(CC(C)C)c3c(N)n(Cc4ccccc4)c(=O)[nH]c3=O)CC2=O)c1 (stereo not given)	-0.2	·	·	·	-2
CCOC(=O)CC(=O)CSc1nc2c(C)c(C)ccc2cc1C	3.5	2%	-24	8	-8
O=C(COc1ccccc1Cl)NCCCNC(=O)c1ccco1	-0.2	·	·	·	1
COc1cc(NC(=O)c2ccc(Cl)cc2)c(Cl)cc1NC(=O)c1cccnc1	-2.8	·	·	·	0
CCOC(=O)c1[nH]c2ccc(OC)cc2c1NC(=S)N1CCN(c2ccc(F)cc2)CC1	-2.1	·	1	2	4
COC(=O)c1c(C(=O)OC)c(-c2ccc(F)cc2)n2c1CS(=O)(=O)C2	-0.3	·	·	·	-2
O=C1CSC(c2cn(-c3ccccc3)nc2-c2ccc3c(c2)OCCO3)N1CCN1CCOCC1 (stereo not given)	2.7	9%	-27	-25	-16
COc1ccc(NC(=O)Nc2cnccn2)cc1	0.3	0%	·	·	-7
O=C(c1ccccc1)c1ccc2cc(O)ccc2c1	7.0	·	·	·	13
Cc1nc2ccccn2c1C(=O)NCc1cccnc1	0.1	-10%	-8	3	-6
Cc1c(C=NCCOCc2ccccc2)cnn1C	-6.5	-11%	-25	4	-19
Cc1cccc(Cc2cnc(NC(=O)C3=NCCN3)s2)c1	8.3	?	·	9	94
CC(=O)Nc1ccc(NS(=O)(=O)c2cccc3ccccc23)cc1	-1.9	-2%	1	9	11
CN(Cc1nc(-c2ccccc2)no1)C1CCOCC1	-3.8	-3%	·	·	-14
CN(C)S(=O)(=O)c1ccc(C(=O)NCC2(N3CCCCC3)CCCCC2)cc1	1.7	-7%	·	3	-7
COc1ccc(C(=O)NNC2=CC(=O)CC(C)(C)C2)cc1OC	-0.7	-2%	-22	-3	-9
CCCC/C(O)=C1\C(=O)CC(C)(C)CC1=Nc1ccc(N)cc1	·	-2%	·	15	2
Cc1nnc(OCc2nc3ccccc3n2C)c2ccccc12	-1.8	-10%	-5	-3	1
Cc1ccccc1-c1nc(-c2ccc(NC(=O)c3ccc(Br)o3)cc2)no1	-0.6	8%	1	-4	0
COc1cccc(CN2CCN(C3CSCCSC3)CC2CCO)c1 (stereo not given)	2.9	-13%	·	4	-4
COc1ccc(C(c2nnnn2CS(=O)(=O)c2ccc(C)cc2)N2CCN(c3ncccn3)CC2)cc1 (stereo not given)	2.5	0%	-11	8	5
N#CCCSc1ncnc2c1oc1ccccc12	0.5	14%	-20	-1	-5
CCNS(=O)(=O)c1ccc(OC)c(C(=O)NC2CCCCC2)c1	-3.3	5%	·	5	-4
Cc1ccc(-c2nnn(CC(=O)NCC3CC3)n2)o1	-0.7	-3%	-49	2	-4
[N-]=[N+]=NCc1cn2cccnc2n1	-1.4	-10%	·	4	-4
O=C(CC1(O)C(=O)Nc2ccccc21)c1ccc(-n2cccc2)cc1 (stereo not given)	4.1	8%	28	-2	3
Cc1ccc(C)c(N2CCN(C(=O)C3CCCCN3S(=O)(=O)c3ccc(F)cc3)CC2)c1 (stereo not given)	6.9	-2%	-35	-13	15
COc1ccc(CCNC(=S)N2CCC(C(=O)c3ccc(F)cc3)CC2)cc1OC	6.9	3%	·	12	-2
O=c1c2ccccc2cnn1Cc1cccc(Br)c1	-1.1	3%	·	-5	-10
Cc1c(Cl)cccc1N(CC(=O)NC(C)c1ccccc1)S(C)(=O)=O (stereo not given)	1.1	·	·	·	-3
CC(C)(C)CC(=O)Nc1nnc(SCC(=O)NC2CCCCC2)s1	-2.8	·	·	·	-1
COC(=O)c1ccc(SC2CCCCC2)c([N+](=O)[O-])c1	5.7	-13%	-21	9	-7
O=P(Nc1ccccc1)(Nc1ccccc1)Oc1ccccc1	·	12%	-5	-5	2
O=S(=O)(c1ccc(Cl)cc1)N1CCCCCC1	5.0	·	·	·	-9
Fc1cccc(Cl)c1Cn1nnc2c(NCc3ccncc3)ncnc21	3.7	7%	·	-18	0
CCOC(=O)C1CCN(C(=O)CSc2ccc(Br)cc2)CC1	2.1	4%	·	4	2

2 records picked at random from those above, as already listed:
SMILES	RecA intein inh	Mtb growth	YopH inh	Arbovirus anti	Mtb bLac sens	others
N#CCCSc1ncnc2c1oc1ccccc12	0.5	14%	-20	-1	-5
O=S(=O)(c1ccc(Cl)cc1)N1CCCCCC1	5.0	·	·	·	-9

Following part:
SMILES	RecA intein inh	Mtb growth	YopH inh	Arbovirus anti	Mtb bLac sens	others
COc1ccc(-c2nnc(N(C)C(=O)c3ccco3)s2)cc1OC	-0.5	·	·	·	-6
COc1ccc(NC(=O)CCN2C(=O)c3ccncc3C2=O)cc1OC	0.2	-7%	·	·	-1
Cc1c(Br)c([N+](=O)[O-])nn1CC(=O)Nc1ccc(CC#N)cc1	-2.2	6%	·	13	-3
COc1ccc(/C=C(/CC(=O)Nc2ccc(C)cc2)c2nc3ccccc3s2)cc1	1.6	18%	-16	-7	8
COC(=O)N1[C@H](C)C=C[C@]1(Cc1ccccc1)C(=O)OC	-2.0	-17%	·	·	-3
CCOC(=O)c1c(NC(=O)CSc2nnc(Cc3ccccc3)o2)sc(C(C)=O)c1C	1.0	-5%	6	-1	2
O=C(O)C1(P(=O)(c2ccc(Cl)cc2)c2ccc(Cl)cc2)CCCC1	-1.1	-1%	·	9	-1
Cc1[nH]nc(SCC(=O)N2CCC(C)CC2)c1[N+](=O)[O-]	-8.6	2%	-24	8	-6
C=CCSc1nc2c(c(=O)[nH]c(=O)n2C)n1Cc1ccc(C)cc1	-0.9	·	-33	-7	0	Arbovirus anti repeat=-8
Cc1ccc(NC(=S)N(CCCN2CCCC2)Cc2cccn2Cc2ccc(Cl)cc2)cc1C	7.8	4%	·	-30	99
CC(O)c1cccc(NC(=O)C2CCCCC2)c1 (stereo not given)	-3.7	1%	·	1	6
Cc1cc(=O)oc2c(C)c(OCC(=O)N3CCN(c4ccccc4)CC3)ccc12	-0.2	·	·	·	-1
COC(=O)c1ccc(NC(=O)CN2C(=O)CSC2=O)cc1	-1.7	-11%	1	-1	3
Nc1ccc(CN2CCCCCC2)cc1	-0.3	5%	-11	-10	-9
Cn1cc(C(=O)NCCN2CCN(c3cccc(Cl)c3)CC2)c2c3ccccc3n(C)c2c1=O	-11	·	-14	-14	57
CN(C)S(=O)(=O)c1cc(NC(=O)CNCCN2CCOCC2)ccc1Cl	0.0	-10%	·	·	-11
CC(C)COc1ccc(CN=C(N)N=C(N)N)cc1Cl	0.2	10%	-6	0	-1
Cc1cc(C)c(NC(=O)COC(=O)CCc2ccc(S(=O)(=O)N3CCCCC3)cc2)c(C)c1	1.0	-12%	-31	2	3
CC(C)c1ccc2c(c1)C1(NN=C(c3ccccc3)S1)C(=O)N2 (stereo not given)	2.1	-7%	-40	-34	0
O=C(CC1S/C(=N/N=C/c2cccs2)NC1=O)Nc1ccc(Cl)cc1 (stereo not given)	2.7	46%	-9	-11	-2
O=C(Nc1cccnc1)c1cc(S(=O)(=O)N2CCOCC2)ccc1Br	1.1	·	·	·	-2
CC(=O)Nc1cccc(C2=CC(c3ccco3)n3ncnc3N2)c1 (stereo not given)	-292	3%	·	-4	-8
Cc1cccc(Nc2nc(-c3ccccn3)cs2)n1	-1.4	?	-19	-20	96
OCCC1CN(Cc2cc3c(cc2Cl)OCO3)CCN1C1CCCCC1 (stereo not given)	1.9	1%	·	-7	-1
Cc1cc(/C=C(\C#N)C(=O)OCC(=O)NC(=O)NC(C)(C)C)c(C)n1CCC(C)C	2.4	5%	5	2	8
FC(F)(F)c1nc(=S)c2ccccc2[nH]1	·	1%	·	14	·
NNC(=O)COc1cccc(C(F)(F)F)c1	-1.2	1%	·	14	2
C=CCn1c(SCC(=O)NCC)nnc1-c1cc2c(s1)CCC(CC)C2 (stereo not given)	4.3	7%	-10	-17	11

Not all compounds are listed; rates above refer to the full screens.
